# High-throughput results (PubChem BioAssay)
# miR-21 reporter = qHTS Assay for Modulators of miRNAs and/orActivators of miR-21 | HeLa miR-21 FLuc reporter, luciferase, 48 h | Potency, µM (series often up to 38.3 µM), for inactives: top-dose reporter change, positive = more light | 340,000 tested, under 10 active; active = well fitted rising curve with a large enough effect; inconclusive = small, poorly fitted or top-dose-only effect; inactive = no such curve, though single readings can be large or run the other way;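 further: % of control where 0% means no effect; miR-21 action dims this reporter so a rising signal means less miR-21 action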
#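 HeLa miR-21-FLuc reporter line, endogenous miR-21; 2000 cells/well in DMEM/10% FBS; compound titration up to ~40uM final, 48 h, 37 degree Celsius; luciferase detection reagent, 15 min lysis, CCD luminescence.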
# Rango-impB inh = qHTS Assay for Inhibitors of Rango (Ran-regulated importin-beta cargo) - Importin beta complex formation. Importin subunit beta-1 (Homo sapiens), Q14974. Rango CFP/YFP FRET sensor + importin beta, 45 min. Potency, µM (titrated, usually from 92.2 µM), for the others: at the highest dose inhibition of complex formation. 340,000 tested, 0.031% active. AID 540263, 2011; active = rising FRET ratio curve, often small or poorly fitted; inconclusive = mostly compound fluorescence or quenching in the first reads; inactive = flat curves in all reads;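 further: potency means the concentration at half of the fitted maximal effect; 0% = DMSO wells and 100% = buffer wells lacking importin beta; nearly all actives have a fitted effect of over 15% in size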
#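 FRET biosensor (snurportin 1 IBB flanked by EYFP and cerulean), 50 nM, with compound 5 min, then 0.125 microM importin beta in PBS, 1 mM DTT, 0.02% Tween-20, 0.1% BSA. CFP/YFP ratio read after 45 min at room temperature; pre-read flags interference.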
# Rango dissoc inh = qHTS Assay for Inhibitors of RanGTP induced Rango (Ran-regulated importin-beta cargo) - Importin beta complex dissociation; 340,000 tested, 0.071% active; Potency, µM (highest dose often 46.1 µM), inactives show top-dose activity change, negative = inhibition; Biochemical FRET Rango-importin beta, RanGTP-induced dissociation; active means falling FRET ratio curve, often poorly fitted, with flat reads before Ran was added; inconclusive means other falling curves, or compound fluorescence or quenching; inactive means flat or rising ratio curve;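 further: potency means the concentration at half of the fitted maximal effect; % of control where 0% means no effect; nearly all actives have a fitted effect of over 45% in size; -100% = wells without RanGTP and RCC1; the record marks most hits as doubtful in a second field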
#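 Rango FRET biosensor (snurportin-1 IBB flanked by N-terminal EYFP and C-terminal CFP10) at 0.1 uM, with 0.25 uM importin beta in PBS, 1mM DTT, 0.02% Tween-20, 0.1% BSA. 0.6 uM Ran, 2mM GTP and 0.2 uM RCC1 were then added for 45 min at room temperature. Inhibition read as loss of FRET rise.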
# GLA inh pH 4.5 = qHTS Assay for Inhibitors of Human alpha-Galactosidase at pH 4.5; activity change, negative = inhibition, % at 105 µM; Alpha-galactosidase A (Homo sapiens), P06280; 230,000 tested, under 10 active; purified enzyme, 4-MU-alpha-Gal fluorescence, pH 4.5; inconclusive = small, poorly fitted or top-dose-only inhibition, or a rising curve; inactive = flat fitted curve, though single readings scatter; no compound was filed as active;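 further: 0% = full activity with enzyme and -100% = basal without enzyme; dose as in the result columns while the protocol names 77 µM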
# Target sequence (P06280 whole entry, looked up): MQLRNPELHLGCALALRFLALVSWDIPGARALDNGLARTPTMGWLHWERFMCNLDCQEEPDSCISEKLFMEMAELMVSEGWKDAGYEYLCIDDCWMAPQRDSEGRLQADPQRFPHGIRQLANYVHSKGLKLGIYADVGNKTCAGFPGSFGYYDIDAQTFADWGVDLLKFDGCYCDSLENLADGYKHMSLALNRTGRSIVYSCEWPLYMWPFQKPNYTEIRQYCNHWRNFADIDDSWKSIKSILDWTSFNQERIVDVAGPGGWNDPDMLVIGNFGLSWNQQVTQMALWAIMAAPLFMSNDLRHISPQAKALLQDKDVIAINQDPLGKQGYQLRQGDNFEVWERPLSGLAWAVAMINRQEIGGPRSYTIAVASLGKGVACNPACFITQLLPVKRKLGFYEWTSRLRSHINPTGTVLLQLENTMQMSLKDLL
# * hit, by the source's call; ? = inconclusive; / = not tested or not shown; [ ] = remark or other dose. This is a subset (hit frequency here may not be typical).
# Start of the data: the first 6 entries (preview)
cpd | Compound | miR-21 reporter | Rango-impB inh
1 | CC(C)Oc1ccc(Cl)cc1Nc1nc(NCCO)nc(N2CCCC2)n1 | / | 0.2%
2 | O=[N+]([O-])c1cccnc1Sc1ccccc1Cl | / | 0.8%
3 | CCCCN1C(=O)CC(N2CCOCC2)C1=O (stereo not given) | 1% | -0.4%
4 | O=C(c1ccccc1)N(C(=O)c1ccccc1)c1ncnc2c1C(c1ccccc1)c1c(ccc3ccccc13)O2 (stereo not given) | / | 4.8%
5 | C/C(Cn1nnc([N+](=O)[O-])n1)=N\NC(=O)c1ccccc1Cl | ? | 5.4%
6 | Cc1ccc(NC(=O)CN(C)C(=O)c2ccc(OCc3cn4ccccc4n3)cc2)cc1 | / | -3.9%

cpd | Rango dissoc inh | GLA inh pH 4.5
1 | 13% | /
2 | 1% | /
3 | -11% | 3
4 | ? | /
5 | -7% | 1
6 | 14% | /

# The whole of this part, previewed entries included:
cpd | Compound | miR-21 reporter | Rango-impB inh
1 | CC(C)Oc1ccc(Cl)cc1Nc1nc(NCCO)nc(N2CCCC2)n1 | / | 0.2%
2 | O=[N+]([O-])c1cccnc1Sc1ccccc1Cl | / | 0.8%
3 | CCCCN1C(=O)CC(N2CCOCC2)C1=O (stereo not given) | 1% | -0.4%
4 | O=C(c1ccccc1)N(C(=O)c1ccccc1)c1ncnc2c1C(c1ccccc1)c1c(ccc3ccccc13)O2 (stereo not given) | / | 4.8%
5 | C/C(Cn1nnc([N+](=O)[O-])n1)=N\NC(=O)c1ccccc1Cl | ? | 5.4%
6 | Cc1ccc(NC(=O)CN(C)C(=O)c2ccc(OCc3cn4ccccc4n3)cc2)cc1 | / | -3.9%
7 | CC(=O)Nc1ccc(OCC(O)Cn2nc(C)c(C)c2C)cc1 (stereo not given) | -2% | 0.2%
8 | CC(=O)N1C[C@H]2CON(C)[C@H]2C[C@H]1c1cccc(-c2ccccc2)c1 | / | 5.6%
9 | CCCC(=O)c1c[nH]c(C(=O)NCCc2ccccn2)c1 | -21% | 6.4%
10 | CC1(C(=O)N/N=C/c2ccccc2)CC1(Br)Br (stereo not given) | -5% | 0.7%

cpd | Rango dissoc inh | GLA inh pH 4.5
1 | 13% | /
2 | 1% | /
3 | -11% | 3
4 | ? | /
5 | -7% | 1
6 | 14% | /
7 | 15% | /
8 | 6% | /
9 | -3% | 2
10 | 31% | 1

cpd | Compound | miR-21 reporter | Rango-impB inh
11 | N#Cc1c(NC(=O)CSc2nnnn2C2CCCCC2)sc2c1CCCC2 | 1% | -1.7%
12 | C[C@@]12CC(=O)NC1N(C(=O)c1cccc(C(F)(F)F)c1)C(c1ccccc1O)C2 (stereo not given in full) | 0% | -0.2%
13 | CCc1nc(SCC(=O)Nc2nnc(CC(C)C)s2)n[nH]1 | -1% | 0.6%
14 | O=C(COc1ccc(Cl)cc1)Nc1nnc(-c2ccc3c(c2)CCCC3)o1 | -17% | -1.3%
15 | CC(C)[C@@H](C(=O)OCC(=O)Nc1ccc2c(c1)OCO2)N1C(=O)c2ccccc2C1=O | 2% | 6.2%
16 | O=C(Nc1cccc(-c2cn3ccsc3n2)c1)c1ccccc1 | -20% | 0.1%
17 | O=C(CCC(=O)Nc1ccc(F)cc1)N/N=C/c1ccc(O)cc1 | -5% | 2.6%
18 | O=C1NCCN1Cc1ccc(Cl)cc1 | 0% | 0.3%
19 | Cc1cc(C)c(S(C)(=O)=O)c(Oc2ccc(F)cc2)n1 | -4% | ?
20 | C=CCC(C)(NCc1ccccc1)c1ccco1 (stereo not given) | -4% | 5.8%

cpd | Rango dissoc inh | GLA inh pH 4.5
11 | 2% | 6
12 | -12% | 9
13 | 1% | -1
14 | 18% | 5
15 | 5% | -13
16 | -2% | 9
17 | 2% | /
18 | 0% | 0[21.1 µM]
19 | ? | 2
20 | 1% | -25

cpd | Compound | miR-21 reporter | Rango-impB inh
21 | O=C1CCCc2nc(NCc3ccco3)ncc21 | -18% | -0.9%
22 | CCOc1ncccc1C(=O)Nc1ccc(S(=O)(=O)N2CCCC2)cc1 | 0% | -0.2%
23 | O=C(Cn1ccc2ccccc2c1=O)NCC(=O)Nc1ccc(F)cc1F | 5% | 0.3%
24 | Cc1sc(NC(=O)C2CSC3(C)CCC(=O)N23)nc1-c1ccc(F)cc1 (stereo not given) | 4% | -0.4%
25 | Cc1ccc(CNC(=O)c2cc3c(-c4ccc(Cl)cc4)nn(C)c3s2)o1 | 22% | 3.5%
26 | CCOC(=O)c1sc(NC(=S)NC(=O)c2ccccc2)c(C(=O)OCC)c1C | -1% | 5.1%
27 | COc1ccc(NC2CCCN(C(=O)c3cc(C)nc4cc(F)ccc34)C2)cc1 (stereo not given) | 1% | 1.6%
28 | Cc1cc(C(=O)NNC(=O)/C=C/c2ccc(F)cc2)c(C)o1 | -3% | 0.5%
29 | Nc1nonc1-c1nc2ccccc2n1CC(=O)NC1CCCC1 | -12% | 3.2%
30 | CCOc1ccc(C(=O)Nc2ccc(NC(=S)NC(=O)CC)cc2)cc1Cl | -12% | 2.0%

cpd | Rango dissoc inh | GLA inh pH 4.5
21 | -32% | 2
22 | -9% | 3
23 | -6% | /
24 | -10% | /
25 | 11% | -4
26 | -10% | -1
27 | 3% | /
28 | 0% | /
29 | -6% | -1
30 | 12% | 3

# One compound at a time (already shown).
# O=C(Cn1ccc2ccccc2c1=O)NCC(=O)Nc1ccc(F)cc1F across the screens: miR-21 reporter: 5%; Rango-impB inh: 0.3%; Rango dissoc inh: -6%; GLA inh pH 4.5: /
# Cc1cc(C(=O)NNC(=O)/C=C/c2ccc(F)cc2)c(C)o1 across the screens: miR-21 reporter: -3%; Rango-impB inh: 0.5%; Rango dissoc inh: 0%; GLA inh pH 4.5: /

# Part of the list above in order of molar mass, high to low:
cpd | Compound | miR-21 reporter | Rango-impB inh
25 | Cc1ccc(CNC(=O)c2cc3c(-c4ccc(Cl)cc4)nn(C)c3s2)o1 | 22% | 3.5%
22 | CCOc1ncccc1C(=O)Nc1ccc(S(=O)(=O)N2CCCC2)cc1 | 0% | -0.2%
21 | O=C1CCCc2nc(NCc3ccco3)ncc21 | -18% | -0.9%

cpd | Rango dissoc inh | GLA inh pH 4.5
25 | 11% | -4
22 | -9% | 3
21 | -32% | 2

# (next part)
cpd | Compound | miR-21 reporter | Rango-impB inh
31 | Cc1n[nH]c(C)c1S(=O)(=O)N1CCCC(C(=O)NCc2ccccc2Cl)C1 (stereo not given) | -10% | -1.0%
32 | C=CCC(NCc1ccccc1)c1ccc(OC)cc1 (stereo not given) | 5% | -0.2%
33 | CN(C(=O)c1ccccc1)c1nc2ccccc2s1 | -32% | -2.5%
34 | CN1CCN(C(=O)/C=C/c2ccc(Cl)cc2)CC1 | -20% | -1.3%
35 | Oc1[nH]c2ccccc2c1N=Nc1nncc2ccccc12 | -39% | -0.2%
36 | Cc1cc(C(=O)CSc2nnnn2C)c(C)n1CCc1ccc(Cl)cc1 | 7% | -0.3%
37 | COc1cc(NS(=O)(=O)c2ccc(N/C=C(\C#N)c3nc4ccccc4o3)cc2)nc(OC)n1 | -19% | -3.9%
38 | COc1ccc(/C=N/NC(=S)Nc2ccccc2[N+](=O)[O-])cc1O | -16% | 0.2%
39 | CCCCN(C(=O)c1cc(S(=O)(=O)N2CCOCC2)ccc1Cl)c1c(N)n(CC(C)C)c(=O)[nH]c1=O | / | -2.5%
40 | O=S(=O)(O)c1ccc(N=Nc2ccccc2)cc1 | -3% | -0.4%

cpd | Rango dissoc inh | GLA inh pH 4.5
31 | -17% | 1
32 | -4% | /
33 | 0% | -3
34 | -6% | 4
35 | 23% | 4
36 | 7% | -5
37 | -2% | -5
38 | 0% | -5
39 | 0% | /
40 | -17% | 0

cpd | Compound | miR-21 reporter | Rango-impB inh
41 | COc1ccc(/C=C/C(=O)NC(=S)Nc2ccc(C(=O)O)cc2)cc1 | 0% | 0.3%
42 | COc1ccc(C(C#N)N2CCCCC2)cc1OC (stereo not given) | 1% | -0.6%
43 | COc1cccc(/C=C2/NC(=O)N(CC(=O)Nc3ccc(C)cc3)C2=O)c1OCc1cccc(C(=O)O)c1 | 0% | ?
44 | CCOC(=O)c1ccc(NC(c2ccc(N(C)C)cc2)P(=O)(OC(C)C)OC(C)C)cc1 (stereo not given) | 0% | -2.2%
45 | O=[N+]([O-])c1ccccc1Oc1ccc(C(F)(F)F)cn1 | 0% | ?
46 | CCN(CC(=O)NCc1ccc(Cl)cc1)C(=O)C1CCN(S(=O)(=O)c2ccc(OC)c(OC)c2)CC1 | / | 1.3%
47 | Cc1ccc2nc(SCC(=O)Nc3nonc3N)[nH]c2c1 | -18% | -1.7%
48 | O=C1N[C@@H](Cc2ccccc2)C(=O)N2CCCC12 (stereo not given in full) | / | -1.2%
49 | O=C1NC(=O)C(=Cc2ccccc2)N1 | / | 8.0%
50 | Cc1ccc(C2NS(=O)(=O)N=C2N)cc1 (stereo not given) | 9% | 2.3%

cpd | Rango dissoc inh | GLA inh pH 4.5
41 | -4% | -8
42 | 2% | -1
43 | -7% | /
44 | -8% | -13
45 | 14% | 2
46 | -7% | /
47 | -9% | -1
48 | 30% | -9
49 | -13% | /
50 | -5% | 5

cpd | Compound | miR-21 reporter | Rango-impB inh
51 | O=C(Nc1ccccc1)N1CCN(Cc2ccccc2)CC1 | -30% | 5.6%
52 | O=C(Nc1cc(S(=O)(=O)N2CCCCC2)ccc1Oc1ccccc1)C1=COCCO1 | 0% | -4.0%
53 | Nc1c(N(CCC2=CCCCC2)C(=O)Cc2ccc(F)cc2)c(=O)[nH]c(=O)n1Cc1ccccc1 | / | -1.6%
54 | CO/N=C/c1ccc(N2CCN(C(=O)c3cccc(C(F)(F)F)c3)CC2)c([N+](=O)[O-])c1 | 16% | 1.3%
55 | Cn1c(N)c(Br)c(-c2ccc(F)cc2)c(C#N)c1=O | -4% | 1.4%
56 | O=C(CCCCCCCCN1C(=O)c2ccccc2C1=O)N1CCOCC1 | 3% | -2.1%
57 | CC1CCN(CC(O)COCCOc2ccc(Br)cc2)CC1 (stereo not given) | -1% | 0.2%
58 | O=C(Nc1cccc(S(=O)(=O)N2CCOCC2)c1)c1cc(S(=O)(=O)N2CCOCC2)c(Cl)cc1Cl | / | ?
59 | CN(c1nnc(N)s1)C1CCCCC1 | -12% | 5.6%
60 | COc1ccc(C2=NN(C(=O)c3ccc(Cl)c([N+](=O)[O-])c3)C(c3ccccc3)C2)cc1 (stereo not given) | -10% | 1.5%

cpd | Rango dissoc inh | GLA inh pH 4.5
51 | -5% | 2
52 | -9% | /
53 | 11% | /
54 | 3% | -16
55 | 5% | 0
56 | -1% | -1
57 | -3% | -18
58 | -16% | /
59 | -28% | -12
60 | 0% | -4

cpd | Compound | miR-21 reporter | Rango-impB inh
61 | COc1cc(C(=O)N/N=C/c2ccc(OC(=O)c3ccccc3)c(OC)c2)ccc1O | -8% | 1.9%
62 | CC(C)(C)OC(=O)NCc1ccc(CNC(=O)c2nc[nH]c2C(=O)NCc2ccccc2)cc1 | / | 3.0%
63 | COc1ccc(OC)c(/C=C/C(=O)N(C)CC(=O)Nc2ccc(C)cc2)c1 | -6% | ?
64 | COCc1c(C(=O)NC(C)c2ccc(S(N)(=O)=O)cc2)oc2ccccc12 (stereo not given) | -7% | -1.0%
65 | CC/C(C)=N/N1C(=O)c2ccccc2NC1(C)CC (stereo not given) | -17% | -4.4%
66 | COc1ccc(C(=O)Nc2ccc(Cc3ccncc3)cc2)cc1Br | -3% | 0.6%
67 | CCCCn1c(N)c(N(CCC(C)C)C(=O)c2cccc(N3C(=O)c4ccccc4C3=O)c2)c(=O)[nH]c1=O | / | -1.0%
68 | Cc1ccc(S(=O)(=O)N2CCOCC2)cc1C(=O)OCC(=O)NCCc1ccccc1 | / | ?

cpd | Rango dissoc inh | GLA inh pH 4.5
61 | 15% | /
62 | -8% | /
63 | -13% | 4
64 | -8% | /
65 | -1% | 26
66 | -15% | 3
67 | -7% | /
68 | -9% | /
